# TRPV1 PAM: enhances activation of the human vanilloid receptor TRPV1; Q8NER1; TRPV1-expressing cells, Fluo-8 calcium influx, capsaicin EC20 potentiation; host cell line not named in the record; control for the full effect not named in the record; potentiation, % at 8.33 µM; actives 0.02% (n = 320,000); AID 540277; active means potentiation above 80%; inconclusive means 30% to 80%; inactive means below 30%; note: 0% is about no effect
#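 Cells expressing TRPV1 were dye-loaded with Fluo-8 and read kinetically: 10 s baseline, 3 min after compound (agonist portion), then 2 min after EC20 capsaicin (allosteric enhancer portion). Calcium-bound dye fluorescence at 480/520 nm.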
# gsp agonist: activates gsp, the McCune-Albright syndrome mutation; gsp mutant cells, cAMP HTRF, 30 min; control for the full effect not named in the record; Potency, µM (titrated, usually from 76.9 µM), inactives show at the highest dose activation (cAMP increase), actives largely listed as activators; actives 0.13% (n = 340,000); AID 624287; active = well fitted activation curve with a large enough effect; inconclusive = small, poorly fitted or top-dose-only effect, or another doubt; inactive = no such curve, though single readings can be large or run the other way; cell line not stated here;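 note: phosphodiesterase inhibitor Ro 20-1724 added with compounds to block cAMP breakdown; potency is the fitted concentration of half-maximal effect; nearly all actives have a fitted effect of over 60% in size; about a fifth of the inactives were tested at one dose only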
#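 Cells stably selected in G418 were plated at 2000/well, grown 16-24 hr, then given compounds in DMSO with the PDE inhibitor […] (300 uM solution added) for 30 min at 37C; cAMP was read by HTRF.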
# Sfp PPTase inh: blocks B. subtilis Sfp PPTase activity. Q9F4F7. actives 3.5% (n = 310,000). Potency, µM, for the others: max response, negative = inhibition, hits mostly inhibitors. Biochemical Sfp PPTase activity, qHTS. AID 1490; active = well fitted inhibition curve with a large enough effect; inconclusive = small, poorly fitted or top-dose-only effect, or another doubt; inactive = no such curve, though single readings can be large or run the other way;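 note: the enzyme is Sfp with the accession as filed and its product quenches rhodamine fluorescence; potency is the fitted concentration of half-maximal effect; 0% = enzyme reaction without inhibitor and -100% = no enzyme wells; top concentration of the series not given in the record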
#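 Fluorescence-quenching assay: 15 nM Sfp-PPTase preincubated 15 min at room temperature with compound, then 5 uM rhodamine-CoA and 12.5 uM BHQ-2-labelled YbbR peptide added. Fluorescence (ex 525/em 598 nm) read at start and after 30 min; difference gives rate.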
# TRPML1 blocker: human mucolipin-1 channel inhibition. Q9GZU1. TRPML1-inducible cells, Ca2+ dye fluorescence, FDSS; hits give low values; inhibition of EC80 agonist-evoked calcium signal. activity change, negative = inhibition, % (test concentration not listed). actives 0.02% (n = 390,000). AID 624415; in the data active means activity change below about -50%; inconclusive means about -30% to -50%; inactive means above about -30%;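 note: stimulus is agonist 54-4 at its EC80 concentration; % is set by controls: 0 for no effect and ±100 for the full control effect; compound concentration not given in the record; the text of the record puts the active cut at -80%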
# Target sequence (Q9GZU1 whole entry, looked up): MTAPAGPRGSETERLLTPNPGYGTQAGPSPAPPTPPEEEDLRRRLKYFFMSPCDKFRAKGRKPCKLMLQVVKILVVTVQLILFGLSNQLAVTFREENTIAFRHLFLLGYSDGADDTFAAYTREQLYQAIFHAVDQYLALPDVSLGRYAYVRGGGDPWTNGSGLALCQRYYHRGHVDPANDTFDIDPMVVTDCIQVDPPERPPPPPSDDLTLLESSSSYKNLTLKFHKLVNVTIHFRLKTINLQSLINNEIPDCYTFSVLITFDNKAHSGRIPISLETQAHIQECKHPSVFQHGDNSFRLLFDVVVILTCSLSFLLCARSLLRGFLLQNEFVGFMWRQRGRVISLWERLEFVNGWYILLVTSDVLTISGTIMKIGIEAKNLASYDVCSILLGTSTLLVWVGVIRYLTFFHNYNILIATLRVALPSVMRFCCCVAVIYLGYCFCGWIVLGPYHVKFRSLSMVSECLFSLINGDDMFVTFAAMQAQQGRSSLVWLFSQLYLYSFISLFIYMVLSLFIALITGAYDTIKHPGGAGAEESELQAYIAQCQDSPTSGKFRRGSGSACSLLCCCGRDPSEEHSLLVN
#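 TRPML1-DL cells, Tet-induced overnight (~16 h, 37 °C) at 1,500 cells/well, were loaded with Ca8 no-wash dye plus quencher for 45-90 min at room temperature. Compounds were pinned during FDSS kinetic reading; agonist 54-4 at EC80 (4 uM final) then added.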
# ClpP mod: qHTS Assay for Activators of ClpP | purified B. subtilis ClpP, FRET peptide cleavage, 20 min | actives 1.9% (n = 340,000) | AID 651965, 2013 | Potency, µM (highest dose often 57.5 µM), for the others: top-dose activity change, negative = active | ATP-dependent Clp protease proteolytic subunit (Bacillus subtilis (strain 168)), P80244; active = well fitted falling curve with a large enough effect; inconclusive = small, poorly fitted or top-dose-only effect; inactive = no such curve, though single readings can be large or run the other way; note: potency is the fitted concentration of half-maximal effect; the source files actives as falling curves though it sought activators and does not explain the sign; nearly all actives have a fitted effect of over 65% in size; many hits overshoot -100%
# Target sequence (P80244 whole entry, looked up): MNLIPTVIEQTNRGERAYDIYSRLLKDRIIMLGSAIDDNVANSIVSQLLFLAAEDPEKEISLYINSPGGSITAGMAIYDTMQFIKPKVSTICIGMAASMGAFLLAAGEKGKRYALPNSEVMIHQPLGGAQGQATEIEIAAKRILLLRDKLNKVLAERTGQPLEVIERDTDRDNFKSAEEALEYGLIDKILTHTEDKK
#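 ClpP 10 microg/mL final, pH 8 Tris/KCl buffer with BSA, glycerol, Tween-20; compound pinned in; FRET-FV substrate; RT 20 min; Ex320/Em430; ΔFRET vs ADEP 5.8 microM, DMSO, no enzyme.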
# gsp antagonist: gsp mutant antagonism; gsp-mutant cells, cAMP HTRF, 30 min; control for the full effect not named in the record; Potency, µM (titrated, usually from 76.9 µM), inactives show at the highest dose activity change, negative = inhibition, hits mostly inhibitors; actives 0.4% (n = 340,000); AID 624288; active = falling curve of any shape with a large fitted effect; inconclusive = falling curve, mostly with a smaller effect; inactive = flat or rising curve; cell line not stated here;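 note: intracellular cAMP measured with PDE inhibitor Ro 20-1724 present during compound exposure; potency is the fitted concentration of half-maximal effect; % is set by controls: 0 for no effect and ±100 for the full control effect; nearly all actives have a fitted effect of over 65% in size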
#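 Cells in G418 medium, seeded 16-24 h, 37C; buffer exchange to DPBS + 1 mM CaCl2, 0.5 mM MgCl2, 0.05% BSA; cpds in DMSO + […] (300 uM stock), 30 min 37C; HTRF cAMP detection.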
# Menin MLL FP FL: displaces fluorescein MLL peptide from human menin; Fluorescence polarization, fluorescein-MLL peptide displacement from menin; FP activity change, % at 61.4 µM; 290,000 tested, under 10 active; AID 1766; inconclusive = falling polarisation curve, or a change in total fluorescence; inactive = total fluorescence flat and polarisation flat or rising; no compound was filed as active; the % refers to the polarisation; negative = inhibition;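 note: % of control where 0% means no effect; inhibitors lower the polarisation; unlabelled MLL peptide was the positive control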
# * = called active by the depositor; ? = inconclusive; nt = not tested or not shown; & = joins results of further samples; [ ] = remark or other dose.
SMILES,TRPV1 PAM,gsp agonist,Sfp PPTase inh,TRPML1 blocker,ClpP mod,gsp antagonist,Menin MLL FP FL
CN1CCCC(C(=O)C(C#N)c2ccccc2)C1 (stereo not given),-8,14%,19%,30,-0.2%,4%,2.1
Cc1ccc(NC(=O)CCCSc2ccccc2)cc1S(=O)(=O)N1CCOCC1,0,12%[15.4 µM],16%,0,-0.6%,-36%,0.5
CCCCn1c(SCC(=O)N2CCc3ccccc32)nnc1-c1ccncc1,-8,0%,9%,-13,-3.7%,?,-1.2
CC(C)Cc1nnc(NC(=O)Cc2ccccc2[N+](=O)[O-])s1,-11,32%[15.4 µM],-18%,-8,0.8%,-9%,-0.8
O=C(CCN1C(=O)c2ccc([N+](=O)[O-])cc2C1=O)Nc1nccs1,2,19%[15.4 µM],-5%,-5,nt,5%,-2.6
Cc1ccc(S(=O)(=O)NNC(=O)Cc2cccn2C)cc1,2,13%,15%,6,-0.3%,-4%,-1.5
COc1ccc(/C=N/NC(=O)Cn2cnc3c2c(=O)n(C)c(=O)n3C)c(OC)c1OC,-19,45%[15.4 µM],31%[activator],3,-2.7%,15%,0.4
CNS(=O)(=O)c1cccc(C(=O)OCC(=O)c2cc(C)n(-c3ccc4c(c3)OCO4)c2C)c1,4,12%,-7%,2,-1.6%,3%,3.9
CC(C)Oc1ccc(S(=O)(=O)N2CCCCC2)cc1NC(=O)CN1C(=O)NC(C)(C2CC2)C1=O (stereo not given),0,3%[15.4 µM],nt,15,-24%,-5%,nt
COc1ccc(C(=O)N2CCN(CCCc3ccccc3)CC2)cc1OC,15,-1%[15.4 µM],?,2,0.5%,-9%,-0.9
C=CCn1c(=O)[nH]c2cc(C(=O)N3CCN(c4cccc(Cl)c4)CC3)ccc2c1=O,-4,-42%[inhibitor],8%,-11,-0.9%,32µM*,-2.8
COc1ccc2nc(N3C(=O)C(O)=C(C(=O)c4ccco4)C3c3ccc(C)o3)sc2c1 (stereo not given),-12,-4%[15.4 µM],nt,19,nt,-13%,nt
O=C(NCc1cccnc1)C(C(=O)c1ccc(F)cc1)n1ccccc1=O (stereo not given),13,-1%,17%,1,-1.9%,9%,-1.2
Cc1ccc2oc(-c3ccccc3)c(C(=O)O)c(=O)c2c1,-8,?,-5%,-18,-5.9%,-8%,10
CC(Oc1ccc(Cl)cc1Cl)c1nc(-c2ccc(NC(=O)c3cccnc3)cc2)no1 (stereo not given),-12,5%,?,-10,20%,?,6.4
Cc1ccc2cc(CNC(C)C)c(=O)[nH]c2c1,-2,4%,3%,0,?,15%,-0.7
Cc1ccc(C2=NS(=O)(=O)N(C)C(C(=O)N3CCCCC3)=C2)cc1,-22,-40%[inhibitor],3%,-3,-8.0%,-1%,-1.9
Cc1cc(OCC(=O)N(C(C)C)C(C)C)ccc1Cl,-1,-22%,2%,-4,0.4%,-9%,1.0
COc1ccc(OC)c(C(=O)CN2C(=O)C(=O)N(C3CCCC3)C2=O)c1,nt,7%[15.4 µM],nt,-9,2.0%,7%,nt
c1ccc2scnc2c1,nt,nt,nt,5,-1.2%,-5%,nt
COC(=O)c1ccc(-n2cc(-c3ccc(OC)cc3)[nH]c2=S)cc1,0,7%,-23%,4,-1.8%,1%,?
OC(CNc1ccnc2cc(Cl)ccc12)CNC1CCCCC1 (stereo not given),nt,4%,nt,-14,28µM*,3%,nt
CN(CCO)c1ncnc2nc[nH]c12,1,-70%[inhibitor],23%,-26,-3.0%,9%,-4.7
C/C(=N\NC(=O)c1cc(-c2ccco2)nc2ccccc12)c1cccnc1,6,?,1%,-11,4.8%,-1%,4.3
CCN(c1ccccc1)S(=O)(=O)c1ccc(OC)c(NC(=O)COc2ccc(C(C)=O)cc2)c1,13,11%[15.4 µM],nt,-6,nt,-12%,nt
CCn1c(C)nc2cc(C(=O)N/N=C/c3ccccc3C)ccc21,2,-21%[15.4 µM],20%,0,nt,-25%,3.4
COc1ccc(CNC(=S)NCc2ccc(F)cc2)cc1OC,-13,-30%,7%,31,-0.5%,-11%,5.0
Cc1ccccc1OCCOC(=O)c1cc(S(=O)(=O)N2CCOCC2)ccc1C,nt,-1%,nt,11,-3.6%,nt,nt
O=c1[nH]c2ccccc2nc1/C=C/c1ccc(F)cc1,12,14%,-16%,7,nt,-1%,?
CC(=O)c1ccc(NC2CC(O)C(O)CO2)cc1 (stereo not given),-5,-12%,22%,8,-2.1%,8%,-3.7
CCOC(=O)[C@H]1[C@H]2COc3ccc(Br)cc3[C@@H]2N2C(=O)CN(C)C(=O)[C@@]12C,nt,nt,nt,-10,-2.7%,1%,nt
CCOCCCNC(=O)c1cn(CC)c2ccc(S(=O)(=O)N(C)C3CCCCC3)cc2c1=O,-23,16%,-2%,-9,3.9%,?,0.6
Cc1ccc(C)c(OCc2ccc(C(=O)NN)o2)c1,-35,10%,-1%,43,-0.9%,2%,0.0
Cc1ccccc1OCC(=O)Nc1ccc([N+](=O)[O-])cc1,-16,-50%[15.4 µM],7%,-1,-2.7%,-2%,0.4
COc1cc(SC)ccc1C(=O)Nc1ccncc1,-17,-2%,-8%,-13,-13%,?,0.8
CC(C)CN1C(=O)c2ccc(C(=O)NCc3ccccn3)cc2C1=O,-14,-1%,19%,-2,-2.7%,-3%,nt
CC(=O)Nc1ccc(S(=O)(=O)N2CCN(c3ccc(C)c(Cl)c3)CC2)cc1,9,-12%,2%,9,-1.2%,1%,-2.5
O=C(Cn1ccc([N+](=O)[O-])n1)NCCc1c[nH]c2ccccc12,5,-14%,6%,1,nt,7%,-0.3
O=C(N/N=C/c1ccc(OC(F)F)cc1)c1cc[n+]([O-])cc1,7,3%[15.4 µM],-7%,-2,nt,3%,-0.5
ONC(=Nc1ccccc1Cl)c1c(F)cccc1F,nt,33%,nt,3,-2.9%,0%,nt
CCC(C)(C)C1CCC2(CC1)NC(=O)N(CC(=O)N(C)Cc1ccc3c(c1)OCCO3)C2=O (stereo not given),2,17%,nt,-9,2.5%,?,nt
CCC(=O)Nc1ccc(C(=O)NNC(=O)c2cc(OC)c(OC)c(OC)c2)cc1,-15,-2%[15.4 µM],19%,15,nt,nt,0.2
NC(=O)N/N=C/c1ccccc1OCc1cccc2ccccc12,3,-32%[inhibitor],3%,-12,0.5%,2%,2.2
CCc1c(C(=O)NNC(=S)NCc2ccccc2)csc1C,-12,-1%,13%,18,1.0%,-11%,7.0
COC(=O)c1cnn(-c2nc3c(C)cccc3s2)c1C,-9,-1%,13%,-4,-4.5%,50%[activator],-0.3

# Reprinted at random: 2 compounds from above, in no set order.
SMILES,TRPV1 PAM,gsp agonist,Sfp PPTase inh,TRPML1 blocker,ClpP mod,gsp antagonist,Menin MLL FP FL
Cc1ccc(C)c(OCc2ccc(C(=O)NN)o2)c1,-35,10%,-1%,43,-0.9%,2%,0.0
COc1ccc(CNC(=S)NCc2ccc(F)cc2)cc1OC,-13,-30%,7%,31,-0.5%,-11%,5.0

# New compounds follow.
SMILES,TRPV1 PAM,gsp agonist,Sfp PPTase inh,TRPML1 blocker,ClpP mod,gsp antagonist,Menin MLL FP FL
CCCN1C(=O)/C(=C/c2ccncc2)SC1=S,?,-63%[inhibitor],56µM*,-4,-1.2%,0%,11
CCOc1ccc(C(=O)Nc2cc(OC)ccc2OC)cc1,-7,4%,-7%,21,-2.6%,-8%,1.3
Nc1ccc(-c2cc3ccccc3c(=O)o2)cc1,nt,23%,nt,23,-3.8%,0%,nt
COc1ccc(N2CC(C(=O)NC3CC(C)(C)NC(C)(C)C3)CC2=O)cc1 (stereo not given),nt,14%,22%,-4,0.0%,9%,4.5
COC(=O)COc1ccc(S(=O)(=O)N2CCc3ccccc3C2)cc1C,2,-25%,-3%,23,-1.7%,-7%,3.2
N#CC1(NC(=O)Cn2ncc(Cl)c(Cl)c2=O)CCCCC1,6,5%[15.4 µM],nt,-6,nt,-1%,nt
CNC(=S)Nc1cccc2[nH]ncc12,-12,?,22%,-10,2.7%,8%,1.5
O=C(NC1CCCCCC1)c1c(O)nc2sccn2c1=O,5,12%,nt,5,0.0%,-5%,nt
Fc1cc(F)c2nc(Nc3nc4cc5c(cc4s3)OCO5)sc2c1,-6,?,3%,22,8.9µM*,5%,3.6
CC(NC(=O)[C@H](C)N1C(=O)N2CCc3c([nH]c4ccccc34)[C@@]2(C)C1=O)c1ccccc1 (stereo not given in full),-6,nt,11%,nt,-0.2%,-12%,-0.5
CCOc1cc(-c2cc(-c3ccc(C)o3)nc(N)c2C#N)ccc1O,5,-2%,-7%,-26,?,-5%,-0.4
COc1ccc(NC(=O)C2=C(C)C(=O)OC23CCC(C)CC3)cc1Cl (stereo not given),7,0%,4%,-4,-4.9%,-26%,1.7
CC(C(=O)N1c2ccccc2Sc2ccccc21)n1nnc(-c2cccs2)n1 (stereo not given),-1,-21%,-2%,12,-0.7%,-10%,2.7
CCCC(=O)Nc1cccc(-c2cn3cccnc3n2)c1,1,14%,11%,-2&-4,3.8%&3.8%,-4%,-3.8
CC(=O)Nc1ccc(NC(=O)COC(=O)c2cc(S(=O)(=O)N(C)C)ccc2N2CCCC2)cc1,-1,-21%,nt,15,-2.5%,6%,nt
Nc1ccc(N2CCCCC2)c2nonc12,-15,-7%,?,13,0.0%,-15%,-2.3
COc1cc(C(=O)N(CCc2ccccc2)C2=CC3CCC(C2)N3C)cc(OC)c1OC (stereo not given),13,-27%,13%,-1,0.7%,7%,2.3
Cc1sc2nc(SCC(=O)N3CCN(CCO)CC3)n(-c3ccccc3)c(=O)c2c1C,-3,-41%[inhibitor],3%,-7,0.4%,-4%,-0.6
Cc1ccc(NC(=O)c2cn(CCC#N)nc2-c2cccs2)c([N+](=O)[O-])c1,8,-31%[inhibitor],17%,12,0.9%,-5%,-0.6
Cc1nc2oc3ccc(Cl)cc3c(=O)c2cc1C(=O)O,-6,5%[15.4 µM],19%,-3,0.4%,-19%,10
CCOc1ccccc1N1CC(C(=O)NCCc2ccc(S(N)(=O)=O)cc2)CC1=O (stereo not given),-17,-12%,-12%,-2,-1.2%,6%,-2.7
